Screening data from PubChem.
Mtb MenB inh – inhibitors of Mycobacterium tuberculosis MenB enzyme | P9WNP5 | MenB enzyme assay, absorbance read-out; some hits fall short of the stated cut | inhibition, %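 (about 12 µg/mL by stock and volumes)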 | 100,000 compounds, 0.43% hits | AID 540299;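 active = mean of two replicates above 30%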;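 note: 0% = no compound and 100% = wells with inactive enzyme; the first replicate is given; strong numbers were not always called active; inactives centre near -10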
Target sequence (P9WNP5 whole entry, looked up): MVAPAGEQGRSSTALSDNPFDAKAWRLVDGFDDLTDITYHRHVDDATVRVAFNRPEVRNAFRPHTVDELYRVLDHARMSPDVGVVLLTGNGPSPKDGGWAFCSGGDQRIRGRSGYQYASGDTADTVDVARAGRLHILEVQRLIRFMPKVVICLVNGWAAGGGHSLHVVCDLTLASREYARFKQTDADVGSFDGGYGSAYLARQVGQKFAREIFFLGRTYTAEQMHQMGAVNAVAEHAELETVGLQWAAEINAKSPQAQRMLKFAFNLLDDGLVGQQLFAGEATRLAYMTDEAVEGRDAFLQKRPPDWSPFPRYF
Polio RdRp inh – inhibitors of poliovirus RNA polymerase binding and polymerization; P03300; poliovirus polymerase elongation, fluorescence polarization; hits give low values; % elongation, % (compound at 16.7 µg/mL); 150,000 compounds, 0.66% hits; in the data active = % elongation below about 90%; note: some results filed as inactive read as strong as hits
Target sequence (P03300 1749-2209 limits assumed): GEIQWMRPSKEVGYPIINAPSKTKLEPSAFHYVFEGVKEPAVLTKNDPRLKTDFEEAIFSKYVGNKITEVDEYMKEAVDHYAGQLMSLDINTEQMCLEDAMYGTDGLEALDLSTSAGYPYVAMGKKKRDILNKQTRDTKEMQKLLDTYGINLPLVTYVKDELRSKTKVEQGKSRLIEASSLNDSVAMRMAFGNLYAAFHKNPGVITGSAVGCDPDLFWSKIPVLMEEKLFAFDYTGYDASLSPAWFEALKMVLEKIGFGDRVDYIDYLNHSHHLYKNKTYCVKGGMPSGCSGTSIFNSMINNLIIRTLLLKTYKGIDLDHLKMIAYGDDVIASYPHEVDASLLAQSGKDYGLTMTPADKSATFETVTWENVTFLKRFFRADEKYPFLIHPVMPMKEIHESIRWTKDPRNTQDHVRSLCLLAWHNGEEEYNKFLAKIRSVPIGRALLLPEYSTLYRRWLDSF
Mtb MbtI inh – blocks the Mycobacterium tuberculosis siderophore enzyme MbtI; inhibition, %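 (about 17 µg/mL by stock and volumes)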; purified MbtI enzyme, fluorescence intensity read-out; 100,000 compounds, 0.89% hits; P9WFX0;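 active = above 50% in both replicates, above 80% if mildly self-fluorescent; inactive = the rest, strongly fluorescent compounds included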;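 note: 0% = mean of negative and 100% = mean of positive controls; one replicate is shown; some compounds called inactive have numbers as strong as hits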
Polio RdRp inh intensity – recorded beside Polio RdRp inh, whose call it bears; % elongation; measured here: total intensity read-out; formula for this scale not given here;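 total fluorescence in place of polarization; lower means less elongation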
An asterisk follows results filed as active.

NNC(=O)C12CCCC(CCC1)C2 was read as Mtb MenB inh -5, Polio RdRp inh 105, Mtb MbtI inh -9 and Polio RdRp inh intensity 101.
`Cn1cccc1C(=O)OCC(=O)c1ccc2c(c1)OCCO2` gave Mtb MenB inh -14, Polio RdRp inh 98, Mtb MbtI inh 7 and Polio RdRp inh intensity 100.
COc1ccc(/C=C(\NC(=O)c2ccccc2)C(N)=O)cc1 was read as Mtb MenB inh -11, Polio RdRp inh 102, Mtb MbtI inh 17 and Polio RdRp inh intensity 101.
`COC(=O)c1c(NC(=S)NCCn2cc(Br)cn2)sc2c1CCC(C)C2` (configuration not stated) gave Mtb MenB inh -28, Polio RdRp inh 102, Mtb MbtI inh -1 and Polio RdRp inh intensity 104.
Cc1noc(C)c1COC(=O)CSc1ncnc2sccc12 was read as Mtb MenB inh 4, Polio RdRp inh 105, Mtb MbtI inh -5 and Polio RdRp inh intensity 112.
`Nc1c(S(=O)(=O)c2cccs2)c2nc3ccccc3nc2n1Cc1cccs1` gave Mtb MenB inh -11 and Mtb MbtI inh -16.
`COc1cccc(Nc2nc(N)nc(CN3CCCCC3)n2)c1` gave Mtb MenB inh -4, Polio RdRp inh 102, Mtb MbtI inh -1 and Polio RdRp inh intensity 103.
`O=C(COC(=O)c1ccc(-n2cnnn2)cc1)Nc1cc(-c2ccccc2)nn1-c1ccccc1` gave Mtb MenB inh -35, Polio RdRp inh 102, Mtb MbtI inh -34 and Polio RdRp inh intensity 107.
O=C(Cn1ncn2c(cc3ccccc32)c1=O)N1CCN(C(=O)c2ccco2)CC1 was read as Mtb MenB inh -1, Polio RdRp inh 103, Mtb MbtI inh 17 and Polio RdRp inh intensity 102.
COc1ccc(-c2cn3c(C)c(C(=O)Nc4ccccc4)sc3n2)cc1 was read as Mtb MenB inh -34, Polio RdRp inh 101, Mtb MbtI inh -6 and Polio RdRp inh intensity 96.
CC(=O)N1c2ccc(S(=O)(=O)N(C)C3CCCCC3)cc2CC1C (configuration not stated) was read as Mtb MenB inh -15, Polio RdRp inh 103, Mtb MbtI inh -6 and Polio RdRp inh intensity 102.
Nn1c(SCC(=O)Nc2ccccc2)nnc1C1CCCCC1 was read as Mtb MenB inh -9, Polio RdRp inh 105, Mtb MbtI inh -7 and Polio RdRp inh intensity 106.
For CC(=O)N1CCN(Cc2nc3ccc(Cl)cc3n2CCO)CC1 the results were Mtb MenB inh -12, Polio RdRp inh 107, Mtb MbtI inh -2 and Polio RdRp inh intensity 114.
c1nc2n(n1)C1=C(CCCC1)C1(CCCCC1)N2 was read as Mtb MenB inh 0, Polio RdRp inh 100, Mtb MbtI inh -5 and Polio RdRp inh intensity 102.
Screening Cc1ccc(S(=O)(=O)N2CCCN(C(=O)CN3CCOCC3)C2c2ccccc2)cc1 (configuration not stated) returned Mtb MenB inh -16, Polio RdRp inh 103, Mtb MbtI inh -10 and Polio RdRp inh intensity 100.
Screening CN(C)c1ccc(N/C(N)=N/c2nc(C(F)(F)F)cc(C(F)(F)F)n2)cc1 returned Mtb MenB inh -25, Polio RdRp inh 102, Mtb MbtI inh -8 and Polio RdRp inh intensity 106.
`COc1ccc2c(c1)C(=O)N(c1ccccc1OC)C(=O)C2(Cc1c(C)noc1C)Cc1c(C)noc1C` gave Mtb MenB inh -12, Polio RdRp inh 100, Mtb MbtI inh 8 and Polio RdRp inh intensity 97.
O=C(CNc1cc(C(F)(F)F)cc(C(F)(F)F)c1)c1cc2cc(Cl)ccc2o1 was read as Mtb MenB inh 0, Polio RdRp inh 99, Mtb MbtI inh 5 and Polio RdRp inh intensity 102.
For CCc1cc2c(=O)c(-c3nc4ccccc4s3)coc2cc1OC(C)=O the results were Mtb MenB inh -5, Polio RdRp inh 104, Mtb MbtI inh -16 and Polio RdRp inh intensity 104.
Screening O=C(O)c1ccc(Nc2nc(-c3ccc(Cl)c(Cl)c3)cs2)cc1 returned Mtb MenB inh -9, Polio RdRp inh 103 and Polio RdRp inh intensity 107.
Screening O=C1CSC(=O)N1CCc1ccccc1 returned Mtb MenB inh -33, Polio RdRp inh 102, Mtb MbtI inh -7 and Polio RdRp inh intensity 102.
O=C(Nc1ccccc1C(=O)Nc1ccc2c(c1)OCCO2)c1ccco1 was read as Mtb MenB inh -6, Polio RdRp inh 104, Mtb MbtI inh 2 and Polio RdRp inh intensity 106.
NC(=O)C(c1ccccc1)c1ccccc1 was read as Mtb MenB inh -10, Polio RdRp inh 102, Mtb MbtI inh 40 and Polio RdRp inh intensity 102.
O=C(CNC(=O)c1ccccc1)Nc1ccccc1 was read as Mtb MenB inh 5, Polio RdRp inh 100, Mtb MbtI inh -10 and Polio RdRp inh intensity 104.
`COc1ccc(CNC(=O)c2cc3c(s2)CN(Cc2ccccc2)C3)cc1` gave Mtb MenB inh 7, Polio RdRp inh 101, Mtb MbtI inh 28 and Polio RdRp inh intensity 103.
Screening O=C1c2ccccc2C(=O)N1N1C(=O)C2C3C=CC(C3)C2C1=O (configuration not stated) returned Mtb MenB inh 18, Polio RdRp inh 101, Mtb MbtI inh 21 and Polio RdRp inh intensity 101.
Screening CN1/C(=C2\C=NN(C)P2(=O)Nc2ccccc2)C(C)(C)c2ccccc21 (configuration not stated) returned Mtb MenB inh -31, Polio RdRp inh 107, Mtb MbtI inh 7 and Polio RdRp inh intensity 107.
For CCC(N)C12CC3CC(CC(C3)C1)C2 (configuration not stated) the results were Mtb MenB inh 0, Polio RdRp inh 86* and Polio RdRp inh intensity 82*.
CC(C)CSCC1OC(n2cnc3c(N)ncnc32)C(O)C1O (configuration not stated) was read as Mtb MenB inh -8, Polio RdRp inh 107 and Polio RdRp inh intensity 111.
`COCCN(Cc1nc2ccccc2c(=O)[nH]1)C(=O)c1ccc(C)cc1C` gave Mtb MenB inh -15, Polio RdRp inh 110, Mtb MbtI inh -2 and Polio RdRp inh intensity 112.
For COc1ccc(CC(=O)n2[nH]c(=O)cc(C)c2=O)cc1OC the results were Mtb MenB inh 0, Polio RdRp inh 99, Mtb MbtI inh 56* and Polio RdRp inh intensity 91.
CCc1nnc(NC(=O)C(C)N2C(=O)C3C4C=CC(C4)C3C2=O)s1 (configuration not stated) was read as Mtb MenB inh -19, Polio RdRp inh 99, Mtb MbtI inh -9 and Polio RdRp inh intensity 97.
For Brc1ccc2noc(-c3ccccc3)c2c1 the results were Mtb MenB inh -2, Polio RdRp inh 106 and Polio RdRp inh intensity 104.
Screening COc1ccccc1Cn1c(=S)[nH]c2cc(C(=O)N3CCC4(CC3)OCCO4)ccc2c1=O returned Mtb MenB inh -11, Polio RdRp inh 102, Mtb MbtI inh -7 and Polio RdRp inh intensity 107.
Cc1csc(C2C(N)=NC(S)=C(C#N)C23CCCCC3)n1 (configuration not stated) was read as Mtb MenB inh -3, Polio RdRp inh 100, Mtb MbtI inh 12 and Polio RdRp inh intensity 113.
O=C1CN(C(=O)CSCc2c(F)cccc2Cl)c2ccccc2N1 was read as Mtb MenB inh -33, Polio RdRp inh 105, Mtb MbtI inh 1 and Polio RdRp inh intensity 102.
O=C(/C=C/c1ccco1)NC(=S)N1CCNC(=O)C1CC(=O)OCC1CCCO1 (configuration not stated) was read as Mtb MenB inh -17 and Mtb MbtI inh 13.
`COc1nsnc1N1CCOCC1` gave Mtb MenB inh -26, Polio RdRp inh 103, Mtb MbtI inh 11 and Polio RdRp inh intensity 100.
For CCCN(CC(=O)Nc1ccc(F)c(F)c1F)C(=O)/C=C/c1nc2ccccc2o1 the results were Mtb MenB inh -9, Polio RdRp inh 101, Mtb MbtI inh -5 and Polio RdRp inh intensity 103.
`O=C(O)/C(=C\c1cccc(C(F)(F)F)c1)Sc1nnc(-c2ccco2)o1` gave Mtb MenB inh -7, Polio RdRp inh 101, Mtb MbtI inh 37 and Polio RdRp inh intensity 101.
For Cc1cc2ccccc2n1-c1ccc(C(=O)NC2CCCC2)s1 the results were Mtb MenB inh 12, Polio RdRp inh 102, Mtb MbtI inh 7 and Polio RdRp inh intensity 98.
Screening COc1ccc(S(=O)(=O)N(C(=O)Oc2ccccc2)c2ccc3oc(=O)sc3c2)cc1OC returned Mtb MenB inh -35, Polio RdRp inh 98, Mtb MbtI inh 4 and Polio RdRp inh intensity 100.
CCOC(=O)C(C)Oc1ccc2c(-c3ccccc3)cc(=O)oc2c1 (configuration not stated) was read as Mtb MenB inh -6, Polio RdRp inh 106, Mtb MbtI inh 1 and Polio RdRp inh intensity 97.
Screening Cc1cc(=O)oc(C)c1C(=O)NCCN(C)Cc1ccccc1 returned Mtb MenB inh -10, Polio RdRp inh 101, Mtb MbtI inh 0 and Polio RdRp inh intensity 107.
Screening O=C1c2ccccc2-c2nnc(-c3ccc(Cl)cc3)cc21 returned Mtb MenB inh -17, Polio RdRp inh 99, Mtb MbtI inh -7 and Polio RdRp inh intensity 102.
For COc1cc(CNc2ccc3[nH]c(=O)[nH]c3c2)ccc1OCC(N)=O the results were Mtb MenB inh -10, Polio RdRp inh 104, Mtb MbtI inh 20 and Polio RdRp inh intensity 99.
`CCNC(=S)N1CC=C(c2ccccc2)CC1` gave Mtb MenB inh -22, Polio RdRp inh 101, Mtb MbtI inh -8 and Polio RdRp inh intensity 105.
N#Cc1cc2c(=O)n3ccccc3nc2n(Cc2cccnc2)c1=O was read as Mtb MenB inh -37, Polio RdRp inh 103, Mtb MbtI inh 87 and Polio RdRp inh intensity 113.

Reprinted at random: 4 records from the list, in no set order.
Screening O=C1c2ccccc2-c2nnc(-c3ccc(Cl)cc3)cc21 returned Mtb MenB inh -17, Polio RdRp inh 99, Mtb MbtI inh -7 and Polio RdRp inh intensity 102.
For COc1cc(CNc2ccc3[nH]c(=O)[nH]c3c2)ccc1OCC(N)=O the results were Mtb MenB inh -10, Polio RdRp inh 104, Mtb MbtI inh 20 and Polio RdRp inh intensity 99.
Screening Cc1cc(=O)oc(C)c1C(=O)NCCN(C)Cc1ccccc1 returned Mtb MenB inh -10, Polio RdRp inh 101, Mtb MbtI inh 0 and Polio RdRp inh intensity 107.
`CCNC(=S)N1CC=C(c2ccccc2)CC1` gave Mtb MenB inh -22, Polio RdRp inh 101, Mtb MbtI inh -8 and Polio RdRp inh intensity 105.

For convenience, some entries already given.
`CCNC(=S)N1CC=C(c2ccccc2)CC1` gave Mtb MenB inh -22, Polio RdRp inh 101, Mtb MbtI inh -8 and Polio RdRp inh intensity 105.
N#Cc1cc2c(=O)n3ccccc3nc2n(Cc2cccnc2)c1=O was read as Mtb MenB inh -37, Polio RdRp inh 103, Mtb MbtI inh 87 and Polio RdRp inh intensity 113.

(list continues)
For Cc1ccc(C(=O)CCC(=O)O)s1 the results were Mtb MenB inh -33, Polio RdRp inh 104, Mtb MbtI inh 23 and Polio RdRp inh intensity 101.
COc1ccc(-c2noc(N3CCC(C(=O)O)CC3)n2)cc1OC was read as Mtb MenB inh -17, Polio RdRp inh 101, Mtb MbtI inh -25 and Polio RdRp inh intensity 102.
CCc1cc2c(=O)c(-c3ccccn3)coc2cc1O was read as Mtb MenB inh -15, Polio RdRp inh 101, Mtb MbtI inh -12 and Polio RdRp inh intensity 103.
`N#C/C(=C\Nc1cnccn1)S(=O)(=O)c1ccc(C(F)(F)F)cn1` gave Mtb MenB inh -14, Polio RdRp inh 106, Mtb MbtI inh 15 and Polio RdRp inh intensity 105.
Screening CCOC(=O)C1CCCN(C(=O)c2cc(Nc3ccc(OC)cc3)nc3ccccc23)C1 (configuration not stated) returned Mtb MenB inh -16, Polio RdRp inh 104, Mtb MbtI inh 0 and Polio RdRp inh intensity 102.
For CCOCC(=O)N1CCN(c2cccc(C)c2C)CC1 the results were Mtb MenB inh -3, Polio RdRp inh 107 and Polio RdRp inh intensity 110.
For CC(C)C(=O)O/N=C(\N)c1ccccc1 the results were Mtb MenB inh -58, Polio RdRp inh 102, Mtb MbtI inh -6 and Polio RdRp inh intensity 104.
CS(=O)(=O)c1ccc(S(C)(=O)=O)s1 was read as Mtb MenB inh 5, Polio RdRp inh 108 and Polio RdRp inh intensity 109.
O=c1c(Cl)c(N2CCN(CCO)CC2)cnn1-c1ccccc1 was read as Mtb MenB inh -11, Polio RdRp inh 102, Mtb MbtI inh 11 and Polio RdRp inh intensity 101.
Cc1ccc(NC2=NCC(=O)N2C2CCCC2)cc1C was read as Mtb MenB inh -50, Polio RdRp inh 103, Mtb MbtI inh 0 and Polio RdRp inh intensity 104.
`CCCCC1(CC)C(=O)NC(=O)NC1=Nc1ccc(OC)cc1` (configuration not stated) gave Mtb MenB inh -16, Polio RdRp inh 104, Mtb MbtI inh 2 and Polio RdRp inh intensity 96.
`Cc1c(C(=O)NCCC2=CCCCC2)sc2ncnc(N3CCCCC3C)c12` (configuration not stated) gave Mtb MenB inh -31, Polio RdRp inh 103, Mtb MbtI inh -14 and Polio RdRp inh intensity 105.
Screening CSc1ncc(C(=O)Nc2ccc3c(c2)OCCO3)n1-c1ccccc1 returned Mtb MenB inh 4, Polio RdRp inh 100, Mtb MbtI inh 14 and Polio RdRp inh intensity 99.
`COC(=O)c1sc(=S)n(-c2cccc(OC)c2)c1N` gave Mtb MenB inh -15, Polio RdRp inh 97, Mtb MbtI inh 96* and Polio RdRp inh intensity 94.
`CC1CCC2C(C1)c1sc(=O)[nH]c1SC2(C)C` (configuration not stated) gave Mtb MenB inh -9, Polio RdRp inh 104, Mtb MbtI inh -8 and Polio RdRp inh intensity 112.
`CSc1sc2c(O)cc(=O)[nH]c2c1C#N` gave Mtb MenB inh -233, Polio RdRp inh 102, Mtb MbtI inh 91 and Polio RdRp inh intensity 113.
Screening COCC(C)n1c(COc2ccccc2F)nnc1SCc1nnc(-c2ccccc2)o1 (configuration not stated) returned Mtb MenB inh -25, Polio RdRp inh 100, Mtb MbtI inh -3 and Polio RdRp inh intensity 108.
